# GAA inhib: alpha-glucosidase (human) inhibition; purified human GAA, 4-MU-alpha-glucoside fluorescence; Potency, µM (doses to about 76.9 µM), without a hit: top-dose activity change, negative = inhibition, actives largely listed as inhibitors; AID 1466; 200,000 compounds, 0.005% hits;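 also: plate controls were uninhibited enzyme wells for no effect and no-enzyme background for full effect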
#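 AC50 values come from Hill fits of compound titrations (up to 77 uM) against 4 nM human enzyme. Substrate 4-methylumbelliferyl-alpha-D-pyranoside at 400 uM, pH 5.0 citrate buffer, 20 min room temperature; fluorescence Ex 365/Em 440 after alkaline stop.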
# GAA spleen mod: lysosomal alpha-glucosidase (human) modulation. human spleen homogenate, 4-MU-alpha-glucoside fluorescence. Potency, µM (series often up to 79.9 µM), without a hit: at the highest dose activity change, negative = inhibition, most hits filed as inhibitors. 240,000 compounds, 0.006% hits;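 also: 0% = enzyme with vehicle and -100% = no enzyme basal signal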
#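 AC50 values come from Hill-equation fits of concentration-response data, normalized to no-enzyme and full-activity controls. Enzyme source: 1 ug human spleen homogenate; 1 mM fluorogenic 4-MU glucoside, pH 5.0 citrate buffer, 37 C, 40 min.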
# GAA glycogen: inhibitors or activators of human alpha-glucosidase glycogen cleavage; P10253; recombinant GAA, glycogen substrate, Amplex Red glucose oxidase fluorescence; Potency, µM (doses to about 76.4 µM), for the others: at the highest dose activity change, negative = inhibition, hits mostly inhibitors; 300,000 compounds, 0.38% hits;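 also: 0% = full enzyme reaction and -100% = no-enzyme basal signal; the screen sought inhibitors and activators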
#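 Recombinant human enzyme (4 nM); glycogen substrate; 37 C, 40 min, pH 5.0. Readout: coupled glucose oxidase/Amplex Red fluorescence.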
# Epigenetic derep: epigenetic control regulation, reporter derepression. murine LDR cells, GFP reporter derepression, 30 h. Potency, µM (doses to about 53.9 µM), without a hit: at the top dose GFP activation, hits mostly activators. 280,000 compounds, 0.2% hits. AID 1865; also: % of control where 0% means no effect; nearly all actives have a fitted effect of over 60% in size
#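 In this reporter-derepression format, murine cells bearing a silenced integrated CMV-GFP locus incubate with test compound (30 h, 37 C), then are washed and imaged; fluorescent objects of 20–120 um count as induced cells.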
# Tau fluor counter: counter-screen for tau fibril formation inhibitors | tau K18 P301L (four-repeat tau fragment) Alexa594 fluorescence, heparin fibrillization | Potency, µM (series often up to 57.7 µM), without a hit: at the top dose activity change, negative = decrease | 280,000 compounds, 0.93% hits | AID 1463; also: % is scaled to controls: 0 for no effect and ±100 for the full control effect; nearly all actives have a fitted effect of over 55% in size
#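 Human K18 P301L tau (15 uM unlabeled plus 0.24 uM Alexa 594-labeled, final) in 100 mM sodium acetate pH 7 was mixed with compound and 20 uM heparin and incubated 6 hr at 37 C.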
# aGal spleen mod: inhibitors or activators of human alpha-galactosidase in spleen homogenate | Potency, µM (titrated, usually from 80 µM), for inactives: top-dose activity change, negative = inhibition, usual class: inhibitors | P06280 | AID 2107 | human spleen homogenate, 4MU-alpha-Gal fluorescence, 40 min | 240,000 compounds, 0.008% hits;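 also: 0% = enzyme with vehicle and -100% = no enzyme basal signal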
# Target sequence (P06280 32-429 limits assumed): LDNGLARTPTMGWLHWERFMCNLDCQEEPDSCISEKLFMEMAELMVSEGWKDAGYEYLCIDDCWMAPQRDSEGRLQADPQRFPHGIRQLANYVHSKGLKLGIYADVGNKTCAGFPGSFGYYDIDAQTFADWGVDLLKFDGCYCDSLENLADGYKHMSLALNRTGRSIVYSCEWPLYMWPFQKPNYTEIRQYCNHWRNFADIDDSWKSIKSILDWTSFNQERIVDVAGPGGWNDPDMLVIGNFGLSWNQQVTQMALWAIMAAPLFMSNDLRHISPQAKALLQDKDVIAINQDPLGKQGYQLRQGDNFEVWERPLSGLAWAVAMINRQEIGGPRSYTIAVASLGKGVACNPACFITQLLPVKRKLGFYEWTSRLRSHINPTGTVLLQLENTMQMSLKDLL
#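 Fluorogenic readout (Ex 365/Em 440 nm) of 4-methylumbelliferone released from 1 mM 4-MU-alpha-galactoside by spleen homogenate, 40 min at 37C, pH 5.0. Data normalized to no-enzyme and enzyme controls; Hill-equation AC50 from compound titrations.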
# ALDH1A1 block: blocks purified human ALDH1A1 activity. P00352. Purified ALDH1A1, NADH fluorescence, propionaldehyde substrate. Potency, µM (highest dose often 75.3 µM), for the others: at the highest dose activity, negative = inhibition, hits mostly inhibitors. 220,000 compounds, 7.3% hits. AID 1030; active = well fitted inhibition curve with a large enough effect, not every such curve was filed as active; inconclusive = small, poorly fitted or top-dose-only effect, or another doubt; inactive = no such curve, though single readings can be large or run the other way;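 also: plate controls were no enzyme wells and a reference inhibitor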
# Target sequence (P00352 whole entry, looked up): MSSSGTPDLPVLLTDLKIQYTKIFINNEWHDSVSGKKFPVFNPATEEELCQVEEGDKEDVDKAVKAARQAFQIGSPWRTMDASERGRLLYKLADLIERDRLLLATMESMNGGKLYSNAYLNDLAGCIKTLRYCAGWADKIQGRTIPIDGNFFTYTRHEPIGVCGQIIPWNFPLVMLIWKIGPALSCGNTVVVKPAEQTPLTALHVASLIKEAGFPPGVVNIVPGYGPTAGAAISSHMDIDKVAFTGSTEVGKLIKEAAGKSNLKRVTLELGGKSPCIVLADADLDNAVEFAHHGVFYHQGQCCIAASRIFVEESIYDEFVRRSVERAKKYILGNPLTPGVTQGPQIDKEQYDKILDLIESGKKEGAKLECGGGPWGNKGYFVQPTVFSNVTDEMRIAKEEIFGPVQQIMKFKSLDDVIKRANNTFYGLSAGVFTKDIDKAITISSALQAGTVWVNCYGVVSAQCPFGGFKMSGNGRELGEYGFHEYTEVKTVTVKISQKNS
# Starred values were filed as active, the others as inactive; ? = inconclusive; . = not tested or not shown; [ ] = another dose, or the depositor's remark. Unless noted, calls follow the shape of the dose curve; as a rule, active = well fitted curve in the direction sought with a large enough effect; inconclusive = small, poorly fitted or top-dose-only effect, or another doubt; inactive = no such curve, though single readings can be large; an effect the other way counts as inactive or inconclusive. Potency is read from the fitted curve at half-maximal effect. An excerpt; count on the stated rates, not on these rows.
# Sample of the layout:
# Screens in order – GAA spleen mod	GAA inhib	Epigenetic derep	Tau fluor counter	aGal spleen mod	GAA glycogen	ALDH1A1 block
- CCOC(=O)CN1C(=O)C(=O)c2cccc(C)c21
  5%	0%	-1.0%	-5%	5%	10%	0.025µM*
- CC1(C)Cc2c(C#N)c(SCc3ccccc3)nc(N3CCOCC3)c2CO1
  -6%	0%	-1.1%	-18%	-3%	-5%	-10%

# All compounds of this part, repeating the preview:
# Screens in order – GAA spleen mod	GAA inhib	Epigenetic derep	Tau fluor counter	aGal spleen mod	GAA glycogen	ALDH1A1 block
- CCOC(=O)CN1C(=O)C(=O)c2cccc(C)c21
  5%	0%	-1.0%	-5%	5%	10%	0.025µM*
- CC1(C)Cc2c(C#N)c(SCc3ccccc3)nc(N3CCOCC3)c2CO1
  -6%	0%	-1.1%	-18%	-3%	-5%	-10%
- Cc1cc(-c2ccccc2)nc(N(C)NC(=O)c2cccc(C(F)(F)F)c2)c1S(C)(=O)=O
  -5%	-6%	1.0%	-20%	-1%	3%	2%
- CCOC(=O)c1cnc(-n2cc(C)cn2)nc1Nc1ccccc1OC
  -3%	-6%	1.1%	-1%	5%	-2%	7%
- CC[C@@H]1CC=C[C@H]2[C@H]1C(=O)N(Cc1ccccc1)[C@H]2c1ccoc1
  -7%	.	?	8%	4%	-18%	.
- O=S(=O)(Nc1cccc(C(F)(F)F)c1)c1cnc[nH]1
  -1%	-2%	1.2%	-2%	-5%	7%	9%
- CC(O)c1cccc(NC(=O)CCCc2ccccc2)c1 (stereo unspecified)
  5%	-2%	0.1%	-11%	9%	-5%	0%
- CCOC(=O)Cn1c(=O)cc(C)c2ccccc21
  0%	6%	0.2%[10.1 µM]	3%	8%	-2%	7%
- Cc1cccn2cc(CCNC(=O)c3ccco3)nc12
  -8%	2%	0.1%	-4%	-1%	-7%	0%
- COc1ccc(-c2c3c(=O)n(C)c(=O)n(C)c3cn2C2CCCCC2)cc1
  -8%	-6%	0.2%	-18%	-9%	-3%	?
- Clc1ccc(C(c2nnnn2C2CCCC2)N2CCSCC2)cc1 (stereo unspecified)
  2%	3%	-1.1%	-9%	7%	-4%	10%
- Cc1ccc2oc(-c3ccc(NC(=O)c4cccnc4)cc3)nc2c1
  -4%	-1%	-0.9%	-20%	2%	3%	?
- COc1ccc(OCC(=O)Nc2cccc(C(C)=O)c2)cc1
  -1%	0%	-2.1%	1%	-7%	18%	16%
- O=C(COC(=O)c1cc(-c2ccccc2Cl)nc2ccccc12)Nc1ncc(C(F)(F)F)cc1Cl
  0%	0%	1.0%	-21%	-16%	11%	15%
- C=CCn1c(CCNC(=O)c2cccs2)nnc1SCC(=O)Nc1cccc(C(C)=O)c1
  -6%	?	1.1%	-5%	-4%	8%	2%
- Cc1onc(-c2ccccc2Cl)c1C(=O)Nc1ccc(-n2nncc2-c2ccco2)cc1
  -6%	?	-1.2%	-21%	-13%	-8%	7%
- C=CCn1c(CCc2cc(C(C)(C)C)c(O)c(C(C)(C)C)c2)n[nH]c1=S
  4%	-1%	-1.9%	-6%	-1%	?	-8%
- O=C(CSc1ncnc2c1oc1ccccc12)Nc1ccccc1C(F)(F)F
  1%	1%	-1.0%	-4%	0%	9%	-8%
- CCCN(CCC)C(=O)CSc1nc2ccccc2c(=O)n1CC1COc2ccccc2O1 (stereo unspecified)
  -5%	-4%	0.0%	-7%	2%	-9%	11µM*
- CC1=CC(C)(C)N(C(=O)c2ccc(F)cc2)c2cc3c(cc21)OCO3
  -7%	-13%	-2.0%	-18%	-7%	-6%	-12%
- CSC1=C(C#N)C(c2ccc(Cl)cc2)C2=C(CC(C)(C)CC2=O)N1 (stereo unspecified)
  8%	?	4.1%	-23%	6%	?	?
- COc1ccc(C(=O)C(CN2CCOCC2)c2ccccc2)cc1 (stereo unspecified)
  -2%	-5%	-3.0%	-11%	-1%	-7%	-6%
- CN(C)S(=O)(=O)c1ccc(NC(=O)CN2CCC(Cc3ccccc3)CC2)cc1
  -16%	-5%	-0.4%	-14%	-8%	1%	-4%
- CNC(=S)N/N=C(\C)c1ccc(Cl)s1
  -2%	1%	0.0%	5%	3%	-24%	?
- Cc1nc2cc(S(=O)(=O)N3CCC(C(=O)O)CC3)ccc2n1C1CCCC1
  -3%	-7%	0.8%	-6%	3%	0%	10%
- N/C(Cc1ccc([N+](=O)[O-])cc1)=N\OC(=O)C(c1ccccc1)c1ccccc1
  4%	-4%	-1.9%	-21%	11%	-6%	-3%
- O=C(Nc1ccc2c(c1)OCCO2)c1cc(-c2ccccc2)nc2ccccc12
  -2%	-3%	-1.2%	?	-15%	-11%	-10%
- Cc1cc(C(F)(F)F)c2c(n1)sc1c(O)cc(=O)[nH]c12
  3%	-3%	1.5%	-7%	6%	0%	-1%
- C=CCn1c(CCNC(=O)c2ccccc2F)nnc1SCC(=O)Nc1nc(C)cs1
  -6%	6%	-0.8%	2%	5%	6%	-1%
- Cc1cc(C)n(-c2ccc(F)cc2)c(=O)c1C(=O)O
  -5%	-5%	-1.0%	-1%	3%	7%	-5%
- CC1CCN(S(=O)(=O)c2ccc(NC(=O)Cc3ccccc3)cc2)CC1
  -16%	?	-3.6%	?	-3%	-5%	-1%
- COc1ccc(-c2csc(NC(=O)c3ccc(N4C(=O)CCC4=O)cc3)n2)cc1
  -1%	5%	0.1%	2%	-1%	5%	?
- COc1ccc(CNc2cccc(F)c2)cc1Br
  0%	-15%	0.7%	?	4%	-4%	2%
- COc1ccc(Br)cc1CN(C)CC(=O)NCCc1ccccc1
  -6%	?	-3.5%	2%	-2%	-5%	?
- COC(=O)c1ccccc1NC(=O)CNc1cc(Cl)ccc1N1CCOCC1
  2%	?	1.5%	?	-3%	-8%	32µM*
- O=C(C1CC(c2ccc(F)cc2)=NO1)N1CCCCC1 (stereo unspecified)
  0%	-9%	0.0%	2%	2%	-3%	1%
- COc1ccc(/C(O)=C2\C(=O)C(=O)N(c3cc(C)on3)C2c2ccc(OC)c(OC)c2)cc1OC (stereo unspecified)
  -10%	5%	-1.1%	-1%	-4%	2%	-3%
- c1ccc(CN(Cc2cccs2)C(c2cccs2)c2nnnn2C2CCCC2)cc1 (stereo unspecified)
  1%	-2%	-0.7%	-10%	4%	0%	6%
- Cc1ccc(S(=O)(=O)N(CC(=O)N2CCN(c3ccc(F)cc3)CC2)C2CCCCC2)cc1
  4%	-4%	-3.2%	-16%	-8%	-7%	?
- O=S(=O)(NCC(c1ccccc1)N1CCNCC1)c1ccc(Cl)cc1 (stereo unspecified)
  5%	9%	-3.9%	-5%	?	-12%	8.9µM*
- C=CCN(C(=O)Nc1ccc2c(c1)nc(C)n2C)c1ccccc1
  1%	.	0.0%	1%	5%	-4%	.
- COc1ccc(NC(=O)c2ccc(-c3nn(C)c(=O)c4ccccc34)cc2)cc1C(N)=O
  3%	.	?	-13%	3%	1%	.
- N#Cc1ccc(Oc2nc(Nc3ccc(F)cc3)nc(N3CCCC3)n2)cc1
  2%	-14%	0.1%	-14%	-7%	-2%	-5%
- Cc1ccc(-c2[nH]c(=O)n3ccncc23)s1
  1%	-7%	4.3%	-9%	9%	40µM*	3%
- Cc1cccc(-c2nnc(-c3ccc(N)cc3)o2)c1
  3%	-6%	-1.1%	7%	0%	-11%	?

# Looked up above.
# COc1ccc(CNc2cccc(F)c2)cc1Br in Epigenetic derep is listed with 0.7%
# c1ccc(CN(Cc2cccs2)C(c2cccs2)c2nnnn2C2CCCC2)cc1 (stereo unspecified) in GAA spleen mod is listed with 1%

# Other compounds.
# Screens in order – GAA spleen mod	GAA inhib	Epigenetic derep	Tau fluor counter	aGal spleen mod	GAA glycogen	ALDH1A1 block
- CCOC(=O)c1sc2nc(CSc3ccccc3)nc(N3CCC(C(N)=O)CC3)c2c1C
  .	?	11%	?	2%	-6%	?
- NC(=O)c1cc(NC(=O)c2ccc(NS(=O)(=O)c3cccs3)cc2)cc(C(N)=O)c1
  -3%	.	-0.2%	1%	0%	-14%	.
- CCN1CCN(C(c2ccccn2)c2c(NC(=O)c3ccccc3)sc(C)c2C)CC1 (stereo unspecified)
  5%	-13%	-1.4%	-9%	7%	-24%	-3%
- COc1ccc(C(=O)Nc2nnc(Cc3cccs3)s2)cc1OC
  0%	-4%	0.0%	2%	4%	3%	1%
- O=C(Nc1ccccc1C(=O)NC(Cc1c[nH]c2ccccc12)C(=O)O)c1ccco1 (stereo unspecified)
  8%	-4%	-3.9%	-1%	2%	-4%	-9%
- Cc1cccc(NS(=O)(=O)c2cc(C(=O)OCC(=O)Nc3cc(C)on3)ccc2C)c1
  7%	.	-2.6%	?	7%	-2%	-3%
- O=C1Nc2cc(C(=O)N3CCc4ccccc4C3)ccc2S/C1=C\c1ccccc1
  -4%	-4%	-1.6%	-18%	4%	-6%	?
- CCOC(=O)c1cnc2ccc(OC)cc2c1Nc1ccc2c(c1)OCCO2
  -2%	-13%	-1.3%	?	4%	3%	?
- CC(C)Sc1nc(N2CCOCC2)c2c(c1C#N)CC(C)(C)SC2
  0%	-12%	0.9%	-22%	-3%	-6%	?
- C=CCn1c(CCNC(=O)c2ccccc2F)nnc1SCC(=O)Nc1nc2ccccc2s1
  3%	-5%	-1.7%	-21%	3%	-12%	?
- CCn1c(CNc2ccc(C)cc2)nnc1SCC(N)=O
  3%	5%	3.5%	-3%	-8%	-15%	2%
- COC(=O)c1ccc2c(=O)n(CCCCCC(=O)N3CCN(c4ccccc4)CC3)c(=O)[nH]c2c1
  9%	4%	-0.2%	-28%	9%	17%	?
- O=C(Nc1ccccc1Cl)c1ccccc1Oc1ccc(C(F)(F)F)cc1[N+](=O)[O-]
  -14%	0%	0.0%	?	-3%	-1%	4%
- CC(C)c1nc(-c2c(N)n(C)c(=O)n(C)c2=O)sc1C(=O)C(C)(C)C
  -9%	-1%	0.0%	-6%	-6%	-8%	0%
- CC1=C(OC(=O)C(C)(C)C)C(C)(C)C(c2ccccc2)OC1=O (stereo unspecified)
  -3%	-1%	-0.9%	1%	1%	-12%	-6%
- C/C(N)=C(/C#N)C(=O)COC(=O)c1cc(-c2ccc(Br)cc2)nc2ccccc12
  -13%	-11%	0.0%	-8%	2%	8%	8%
- COC(=O)C1C(O)=C(C=Nc2ccc3ccccc3c2)C(=O)CC1(C)C (stereo unspecified)
  0%	4%	-0.1%	-9%	1%	10%	?
- Cc1cccc(NC2SC(=O)N(CC(=O)O)C2=O)c1 (stereo unspecified)
  -8%	5%	-2.0%	3%	-5%	-1%	-3%
